Env fusion inh = inhibitors of HIV-1 Env-driven cell-cell fusion, primary screen, HeLa-JRFL effector, CEM21 target cells, luciferase; inhibition, % at 12.3 µM; hit rate 1.1% among 360,000; AID 651610, 2012;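 active means mean replicate inhibition score of at least 50 and every replicate individually at or above 50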;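 further: 0% = plate neutral controls and 100% = maraviroc near 300 nM; one replicate is shown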
UUG fidelity = modulators of yeast start codon fidelity, primary screen, whole organism, S. cerevisiae, single point, plate reader | S. cerevisiae UUG-firefly luciferase reporter, luminescence/redox ratio | activity score, % at 18.7 µM | hit rate 0.13% among 350,000 | AID 602363, 2012;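 active means replicate mean at a twofold rise or more, about +100% in these data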;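 further: firefly luciferase made from a UUG start codon reports start codon fidelity; reporter light over untreated wells divided by growth signal over untreated wells; some hits fall short of that in this replicate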
The depositor's hits bear a star; [ ] = dose if it differs, or a comment.

SMILES | Env fusion inh | UUG fidelity
CN1CCN(C(=O)C[C@H]2CC[C@H]3[C@@H](COc4ccc(NC(=O)C5CC5)cc4C(=O)N3C)O2)CC1 | -12[16.7 µM] | -3
CN(C)CC(=O)N1[C@H](C#N)[C@@H](c2ccc(-c3cccc(C(=O)N(C)C)c3)cc2)[C@H]1CO | -3[16.7 µM] | 22
C[C@H]1CN([C@@H](C)CO)S(=O)(=O)c2ccc(C3=CCCC3)cc2O[C@@H]1CN(C)C(=O)c1cccnc1 | 6[16.7 µM] | -11
O=C(C[C@@H]1C[C@H]2c3cc(NC(=O)C4CCC4)ccc3O[C@H]2[C@@H](CO)O1)NCc1ccc2c(c1)OCO2 | 40[16.7 µM] | -19
COC(=O)C[C@@H]1CC[C@H]2[C@H](COc3ccc(NC(=O)c4ccc(F)c(F)c4)cc3C(=O)N2C)O1 | -7[16.7 µM] | 3
C[C@@H]1CCCCO[C@H](CN(C)Cc2ccncc2)[C@@H](C)CN([C@@H](C)CO)C(=O)c2cc(N(C)C)ccc2O1 | -6[16.7 µM] | 28
Cc1ccc(S(=O)(=O)N[C@@H]2C=C[C@H](CC(=O)NCCc3ccncc3)O[C@H]2CO)cc1 | 19[16.7 µM] | -17
C[C@H]1CN([C@@H](C)CO)C(=O)c2cc(NC(=O)Nc3ccc(F)cc3)ccc2O[C@H]1CN(C)S(=O)(=O)c1cn(C)cn1 | 7[16.7 µM] | 11
C[C@H]1CN([C@@H](C)CO)S(=O)(=O)c2ccc(C3=CCCCC3)cc2O[C@H]1CN(C)Cc1cncnc1 | 8[16.7 µM] | 27
C[C@H](CO)N1C[C@H](C)[C@@H](CN(C)S(C)(=O)=O)Oc2ccc(NC(=O)C3CCCCC3)cc2CC1=O | 1[16.7 µM] | 2
C[C@@H]1CN([C@H](C)CO)C(=O)c2cccc(NC(=O)c3ccncc3)c2O[C@H]1CN(C)Cc1ccc(C(F)(F)F)cc1 | 16[16.7 µM] | -10
Cc1ccc(S(=O)(=O)N[C@@H]2CC[C@@H](CC(=O)NCCc3ccncc3)O[C@@H]2CO)cc1 | -47[16.7 µM] | 5
C[C@@H]1CCCCO[C@H](CN(C)C(=O)Nc2ccccc2)[C@@H](C)CN([C@@H](C)CO)C(=O)c2cc(NC(=O)c3ccccc3)ccc2O1 | -52[16.7 µM] | 1
COC(=O)C[C@H]1CC[C@H]2[C@@H](COC[C@@H](O)CN2S(=O)(=O)c2ccc(F)cc2)O1 | 6[16.7 µM] | -3
O=C(Cc1ccncc1)NCC[C@@H]1CC[C@H](NC(=O)Nc2ccc(Cl)cc2)[C@@H](CO)O1 | -15[16.7 µM] | 34
COc1ccc(S(=O)(=O)Nc2ccc3c(c2)CC(=O)N([C@H](C)CO)C[C@@H](C)[C@H](CN(C)S(=O)(=O)c2cccs2)O3)cc1 | 29[16.7 µM] | 19
COCC(=O)N(C)C[C@H]1Oc2ncc(-c3ccccc3C)cc2C(=O)N([C@H](C)CO)C[C@@H]1C | 24[16.7 µM] | 1
C[C@H]1CN([C@@H](C)CO)S(=O)(=O)c2ccc(-c3ccccc3)cc2O[C@H]1CN(C)C(=O)CN(C)C | 7[16.7 µM] | 3
C[C@@H]1CCCCO[C@H](CN(C)C)[C@H](C)CN([C@@H](C)CO)C(=O)c2cc(NS(=O)(=O)c3cccs3)ccc2O1 | 5[16.7 µM] | 9
C[C@@H]1CCCCO[C@H](CN(C)Cc2ccc(C(F)(F)F)cc2)[C@@H](C)CN([C@H](C)CO)C(=O)c2cc(NC(=O)Nc3ccccc3)ccc2O1 | -12[16.7 µM] | 12
O=C(CCN1CCCCC1)NCC[C@H]1CC[C@H](NC(=O)C2CC2)[C@H](CO)O1 | 10[16.7 µM] | 0
Cc1noc(C)c1NC(=O)Nc1ccc2c(c1)C(=O)N([C@@H](C)CO)C[C@H](C)[C@H](CN(C)C(=O)Nc1ccccc1)OCCCC[C@H](C)O2 | -8[16.7 µM] | 16
Cc1ccc(S(=O)(=O)N(C)C[C@H]2Oc3ccc(NC(=O)Cn4cnnn4)cc3CC(=O)N([C@@H](C)CO)C[C@H]2C)cc1 | 15[16.7 µM] | -1
COCC#Cc1cnc2c(c1)C(=O)N([C@@H](C)CO)C[C@H](C)[C@H](CN(C)Cc1ccccc1)O2 | 4[16.7 µM] | 2
CCCNC(=O)N1C[C@H](C)[C@H](OC)CN(C)C(=O)c2ccc(NS(C)(=O)=O)cc2OC[C@H]1C | 9[16.7 µM] | 2
(continued)
SMILES | Env fusion inh | UUG fidelity
CN(C)CCCNC(=O)C[C@@H]1C=C[C@@H](NS(=O)(=O)c2ccc(F)cc2)[C@@H](CO)O1 | -37[16.7 µM] | 0
COCCOC(=O)N1C(=O)[C@@]2(c3cc(C#CCCO)ccc31)[C@H](C(=O)N1CCc3cc(OC)c(OC)cc3C1)[C@H]1C(=O)O[C@H](c3ccccc3)[C@H](c3ccccc3)N1[C@@H]2c1ccccc1OCCO | -14[16.7 µM] | 11
CCCC(=O)Nc1ccc2c(c1)OC[C@H](C)N(Cc1ccccc1)C[C@H](C)[C@H](OC)CN(C)C2=O | -13[16.7 µM] | -7
CO[C@H]1CN(C)C(=O)c2ccc(NC(C)=O)cc2OC[C@@H](C)N(C(=O)CC2CC2)C[C@@H]1C | 5[16.7 µM] | -13
C[C@H]1CN([C@@H](C)CO)C(=O)c2cc(C#Cc3ccccc3F)cnc2O[C@@H]1CN(C)S(=O)(=O)c1ccccc1F | 18[16.7 µM] | -9
C[C@H](CO)N1C[C@H](C)[C@@H](CN(C)Cc2ccncc2)Oc2ccc(NC(=O)C3CCCCC3)cc2CC1=O | -13[16.7 µM] | 3
C[C@@H]1CN([C@H](C)CO)C(=O)c2cc(N(C)C)ccc2O[C@@H](C)CCCCO[C@@H]1CN(C)C | 8[16.7 µM] | 3
C[C@H](CO)N1C[C@H](C)[C@@H](CN(C)S(C)(=O)=O)Oc2cc(C#CCN(C)C)ccc2S1(=O)=O | -42[16.7 µM] | 13
N#C[C@H]1[C@H](c2ccccc2)[C@H](CO)N1C(=O)c1cc(Cl)cc(Cl)c1 | -10[16.7 µM] | 18
O=C(C[C@@H]1C[C@H]2c3cc(NC(=O)Nc4ccc(C(F)(F)F)cc4)ccc3O[C@H]2[C@H](CO)O1)NCc1ccccn1 | 24[16.7 µM] | -27
C[C@H](CO)N1C[C@H](C)[C@H](CN(C)S(=O)(=O)c2ccccc2)Oc2c(NC(=O)c3ccc(-c4nccs4)cc3)cccc2C1=O | 30[16.7 µM] | 11
CO[C@@H]1CN(C)C(=O)c2ccc(NC(=O)c3cccc(F)c3)cc2OC[C@@H](C)NC[C@@H]1C | 5[16.7 µM] | -6
C[C@@H]1CCCCO[C@@H](CN(C)C(=O)Nc2ccc(F)cc2)[C@H](C)CN([C@@H](C)CO)C(=O)c2cc(NC(=O)c3ccncc3)ccc2O1 | -8[16.7 µM] | -18
CC(C)NC(=O)N[C@@H]1CC[C@H](CCn2cc(-c3ccc(F)cc3)nn2)O[C@H]1CO | 5[16.7 µM] | -5
CC(C)NC(=O)Nc1ccc2c(c1)C(=O)N([C@H](C)CO)C[C@H](C)[C@H](CN(C)S(=O)(=O)c1ccc(Cl)cc1)OCCCC[C@H](C)O2 | -79[16.7 µM] | 0
C[C@H]1CN([C@@H](C)CO)C(=O)c2cc(C#CC3CCCC3)cnc2O[C@@H]1CN(C)C(=O)C1CC1 | 15[16.7 µM] | -6
O=C(C[C@@H]1C=C[C@@H](NC(=O)CC2CC2)[C@@H](CO)O1)NCc1ccc(-c2ccccc2)cc1 | -15[16.7 µM] | -2
Cc1ccccc1NC(=O)Nc1ccc2c(c1)C(=O)N(C)[C@@H]1CC[C@@H](CC(=O)O)O[C@H]1CO2 | 5[16.7 µM] | 11
COc1ccc(S(=O)(=O)N(C)C[C@@H]2OCCCC[C@H](C)Oc3ccc(N(C)C)cc3C(=O)N([C@H](C)CO)C[C@@H]2C)cc1 | 14[16.7 µM] | 92
C[C@H]1CN([C@@H](C)CO)C(=O)c2cc(NC(=O)Cc3ccccc3)ccc2O[C@H]1CN(C)C(=O)Nc1ccc2c(c1)OCO2 | 3[16.7 µM] | 8
O=C(Nc1cccc(F)c1)N[C@H]1CC[C@H](CCn2cc(Cc3ccccc3)nn2)O[C@H]1CO | -2[16.7 µM] | -22
O=C(NCC[C@@H]1CC[C@@H](NC(=O)C2CCCCC2)[C@H](CO)O1)c1cnccn1 | -8[16.7 µM] | -4
CC(C)C#Cc1cnc2c(c1)C(=O)N([C@H](C)CO)C[C@H](C)[C@H](CN(C)C(=O)CC1CC1)O2 | -9[16.7 µM] | 7
C[C@@H]1CCCCO[C@@H](CN(C)C(=O)Nc2ccc(F)cc2)[C@@H](C)CN([C@H](C)CO)C(=O)c2cc(NC(=O)Nc3ccc(F)cc3)ccc2O1 | 17[16.7 µM] | -5
CCS(=O)(=O)NCC[C@H]1CC[C@H](NS(=O)(=O)c2cccc(F)c2)[C@@H](CO)O1 | 1[16.7 µM] | -5

Profiles as entered above.
C[C@H](CO)N1C[C@H](C)[C@H](CN(C)S(=O)(=O)c2ccccc2)Oc2c(NC(=O)c3ccc(-c4nccs4)cc3)cccc2C1=O in the list: Env fusion inh = 30[16.7 µM]; UUG fidelity = 11
COCCOC(=O)N1C(=O)[C@@]2(c3cc(C#CCCO)ccc31)[C@H](C(=O)N1CCc3cc(OC)c(OC)cc3C1)[C@H]1C(=O)O[C@H](c3ccccc3)[C@H](c3ccccc3)N1[C@@H]2c1ccccc1OCCO in the list: Env fusion inh = -14[16.7 µM]; UUG fidelity = 11
C[C@H]1CN([C@@H](C)CO)C(=O)c2cc(C#Cc3ccccc3F)cnc2O[C@@H]1CN(C)S(=O)(=O)c1ccccc1F in the list: Env fusion inh = 18[16.7 µM]; UUG fidelity = -9

The listing continues:
SMILES | Env fusion inh | UUG fidelity
Cc1noc(C)c1S(=O)(=O)Nc1ccc2c(c1)C(=O)N([C@H](C)CO)C[C@H](C)[C@@H](CN(C)S(C)(=O)=O)O2 | 3[16.7 µM] | -7
C[C@H]1CN([C@@H](C)CO)S(=O)(=O)c2ccc(C#Cc3ccccc3F)cc2O[C@H]1CN(C)C(=O)Cc1ccccc1 | -3[16.7 µM] | -13
CNC[C@@H]1Oc2c(NC(=O)C3CC3)cccc2C(=O)N([C@H](C)CO)C[C@@H]1C | -9[16.7 µM] | -6
C[C@@H]1CCCCO[C@H](CN(C)S(=O)(=O)c2cn(C)cn2)[C@@H](C)CN([C@H](C)CO)C(=O)c2cc(NC(=O)C3CCCCC3)ccc2O1 | 8[16.7 µM] | -12
C[C@H](CO)N1C[C@H](C)[C@@H](CN(C)C(=O)c2ccccc2F)Oc2ncc(C#Cc3cccc(F)c3)cc2C1=O | 34[16.7 µM] | -32
C[C@H](CO)N1C[C@H](C)[C@@H](CN(C)Cc2ccc3c(c2)OCO3)Oc2ccc(NC(=O)Nc3cccc4ccccc34)cc2C1=O | 1[16.7 µM] | -2
Cc1noc(C)c1NC(=O)Nc1ccc2c(c1)C(=O)N([C@@H](C)CO)C[C@H](C)[C@H](CN(C)S(=O)(=O)c1cn(C)cn1)OCCCC[C@@H](C)O2 | -11[16.7 µM] | 10
CN(C)C(=O)c1cccc(-c2ccc([C@H]3[C@H](C#N)N(C(=O)C4CCC4)[C@H]3CO)cc2)c1 | -15[16.7 µM] | 7
C[C@H]1CN([C@@H](C)CO)C(=O)CCCn2nncc2CO[C@@H]1CN(C)S(=O)(=O)c1cccs1 | -5 | -14
C[C@@H]1CCCCO[C@H](CN(C)C(=O)NC2CCCCC2)[C@H](C)CN([C@@H](C)CO)C(=O)c2cc(NC(=O)CCC(F)(F)F)ccc2O1 | -71[16.7 µM] | 5
C[C@@H]1CCCCO[C@H](CN(C)S(=O)(=O)c2cn(C)cn2)[C@H](C)CN([C@@H](C)CO)C(=O)c2cc(NS(=O)(=O)c3cccs3)ccc2O1 | -8[16.7 µM] | 6
C[C@@H](O)C#Cc1ccc2c(c1)O[C@@H](CN(C)C(=O)Nc1ccccc1)[C@@H](C)CN([C@@H](C)CO)S2(=O)=O | -43[16.7 µM] | 11
CC(=O)Nc1ccc2c(c1)C(=O)N(C)[C@H]1CC[C@@H](CC(=O)NCCCN3CCOCC3)O[C@@H]1CO2 | 17[16.7 µM] | -3
COCCNC(=O)C[C@@H]1C[C@H]2c3cc(NC(=O)C4CCOCC4)ccc3O[C@H]2[C@H](CO)O1 | 13[16.7 µM] | -1
O=C(N[C@H]1CC[C@H](CCNS(=O)(=O)c2cccc(Cl)c2)O[C@H]1CO)c1ccc(F)cc1 | -3[16.7 µM] | 10
C[C@@H]1CN([C@H](C)CO)C(=O)c2cc(C#Cc3cccnc3)cnc2O[C@H]1CN(C)C(=O)CC1CC1 | 5[16.7 µM] | 12
CN(C)C(=O)C[C@@H]1C[C@H]2c3cc(NC(=O)Nc4ccccc4)ccc3O[C@H]2[C@@H](CO)O1 | 13[16.7 µM] | -4
C[C@@H]1CN([C@@H](C)CO)C(=O)c2cc(-c3cccc(C(=O)N(C)C)c3)cnc2O[C@@H]1CN(C)C | -6[16.7 µM] | -11

Part of the list above, with values ahead of the structure.
Env fusion inh	UUG fidelity	Molecule
24[16.7 µM]	-27	O=C(C[C@@H]1C[C@H]2c3cc(NC(=O)Nc4ccc(C(F)(F)F)cc4)ccc3O[C@H]2[C@H](CO)O1)NCc1ccccn1
30[16.7 µM]	11	C[C@H](CO)N1C[C@H](C)[C@H](CN(C)S(=O)(=O)c2ccccc2)Oc2c(NC(=O)c3ccc(-c4nccs4)cc3)cccc2C1=O
5[16.7 µM]	-6	CO[C@@H]1CN(C)C(=O)c2ccc(NC(=O)c3cccc(F)c3)cc2OC[C@@H](C)NC[C@@H]1C

Bioassay records as filed in PubChem.

Not all compounds are listed; rates above refer to the full screens.
